VDR inh: blocks the human vitamin D receptor; P11473; VDR-SRC2-3 peptide fluorescence polarization, 2 h; Potency, µM, without a hit: max response, negative = inhibition, hits mostly inhibitors; actives 0.93% (n = 400,000); AID 504847; active = well fitted inhibition curve with a large enough effect; inconclusive = small, poorly fitted or top-dose-only effect, or another doubt; inactive = no such curve, though single readings can be large or run the other way; also: series mostly up to about 120 µM
Target sequence (P11473 whole entry, looked up): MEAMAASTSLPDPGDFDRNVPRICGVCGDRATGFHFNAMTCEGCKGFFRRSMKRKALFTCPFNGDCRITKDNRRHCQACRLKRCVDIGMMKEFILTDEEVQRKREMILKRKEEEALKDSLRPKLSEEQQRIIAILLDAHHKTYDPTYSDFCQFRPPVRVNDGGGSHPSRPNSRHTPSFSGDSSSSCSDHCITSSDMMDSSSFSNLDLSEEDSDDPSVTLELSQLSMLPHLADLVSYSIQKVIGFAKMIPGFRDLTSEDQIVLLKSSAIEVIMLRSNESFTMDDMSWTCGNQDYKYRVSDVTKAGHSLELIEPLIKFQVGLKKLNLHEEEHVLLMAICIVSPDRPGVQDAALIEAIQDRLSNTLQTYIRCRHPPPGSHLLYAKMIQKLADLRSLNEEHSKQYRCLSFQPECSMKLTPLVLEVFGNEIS
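Fluorescence polarization assay measuring small-molecule disruption of VDR binding to the coregulator peptide SRC2-3. Compounds were pin-transferred (23 nl) into the reagent mix and incubated 2 h at room temperature before reading.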
* hit, by the source's call; ? = inconclusive; & = joins results of further samples. % is scaled to controls: 0 for no effect and ±100 for the full control effect; potency is read from the fitted curve at half-maximal effect. Some of the compounds tested, so the mix of outcomes need not match the whole.

SMILES | VDR inh
CCCc1cc(=O)[nH]c(SCc2ccccc2)n1 | -21%
CCN(CC)C(=O)CSc1nc2cc3c(cc2c(=O)n1CCCC(=O)NCc1ccc(OC)cc1)OCO3 | -10%&7%
COc1cccc(NC(=S)NNC(=O)c2ccccc2OC(F)F)c1 | -6%
Cc1ccc(CN2CCN(Cc3cccc(C)n3)CC2CCO)cc1 (configuration not stated) | 4%
COc1ccc(Cc2n[nH]c(=O)c3ccccc23)cc1OC | -2%
O=C(Nc1cc(S(=O)(=O)N2CCCCC2)ccc1O)c1ccccc1NS(=O)(=O)c1ccc(F)cc1 | 2%&-21%
CCC(=O)Nc1ccc(Cl)c(NC(=O)c2cccnc2)c1 | -9%
CCN(C1CCS(=O)(=O)C1)S(=O)(=O)c1ccc(Cl)s1 (configuration not stated) | -24%
O=C(Nc1ccc(CN2CCOCC2)cc1)c1ccc(-c2ccc(Br)cc2)o1 | -4%
CCOC(=O)C1=C(N)OC2=C(C(=O)CCC2)C1c1cccs1 (configuration not stated) | 2%
COc1ccc(-n2nnnc2-c2cnc3cc4c(cc3c2C)OCO4)cc1 | -3%
COc1ccccc1C(=O)NC(=O)COC(=O)c1ccc(C)o1 | 1%
CCCOC(=O)CSc1nc(N)c(C#N)c(CC)c1C#N | 2%
O=C(Nc1ccccc1)C12CC1/C(=N\O)c1ccccc1O2 (configuration not stated) | 3%
CC(C)CCNC(=O)Cc1ccccc1[N+](=O)[O-] | -10%
Cc1ccc(NNC(=O)c2ccno2)cc1Cl | -18%
O=C(OCc1cc([N+](=O)[O-])cc2c1OCOC2)c1cccnc1SC(F)F | 5%
COc1ccccc1N1CCN(c2nc3c(S(=O)(=O)c4ccccc4)nnn3c3ccc(Cl)cc23)CC1 | -4%
O=C(NCc1ccco1)c1c(F)cccc1Cl | 3%
CCC1(CC)NC(=O)N(CC(=O)OC(C)C(=O)Nc2ccc(NC(C)=O)cc2)C1=O (configuration not stated) | 1%
COc1ccc(Sc2cnn(-c3ccccc3)c(=O)c2Cl)cc1 | -4%
CCCCCCC[C@@H](C/C=C/CCC(=O)N(C)C/C(=C/Cl)C/C(=C\C(=O)N1CC(OC)=CC1=O)OC)OC | -14%
O=C(CN1C(=O)NC2(CCCC2)C1=O)Nc1cc(Cl)ccc1N1CCCCC1 | 17%
CCCC(NCC(O)COc1ccc(-c2ccccc2)cc1)c1ccccc1 (configuration not stated) | 15%
Cc1cccc(N2CCN(C(=O)c3c4c(nc5ccccc35)C(=O)N(C3CCCCC3)C4)CC2)c1C | 12%
COc1ccc(OCc2nn3c(-c4ccccn4)nnc3s2)cc1 | -8%
O=C(CSc1nc2ccccc2[nH]1)N/N=C/c1ccco1 | -7%
COC(=O)C1=C(C(=O)OC)C2(OC1c1ccc(Br)cc1)C(=O)c1ccccc1C2=O (configuration not stated) | -13%
CC(C)N1CCN(Cc2nc3ccccc3s2)CC1CCO (configuration not stated) | 8%
CN(C)CCNC(=O)C1CC(=O)N(c2ccc(F)c(Cl)c2)C1 (configuration not stated) | -14%
Cc1ccc2nc(Nc3nc(-c4ccccc4)cc(=O)[nH]3)nc(C)c2c1 | -11%
O=C1C=C(c2cc3ccccc3s2)C[C@@H](c2ccc3c(c2)OCO3)C1 | -19%
CN(CC(=O)Nc1ccc(Cl)c(C(F)(F)F)c1)C(=O)c1ccc2c(c1)NC(=O)CS2 | 16%
O=C(Nc1ccc(F)cc1F)c1ccc(-n2cccn2)c([N+](=O)[O-])c1 | -12%
CC1CN(c2ncnc3c2c(-c2ccccc2)cn3-c2ccc(F)cc2)CC(C)O1 (configuration not stated) | -7%
COc1ccccc1C(=O)NC(=O)COC(=O)/C(=C/c1ccccc1)NC(C)=O | -16%
O=C(O)CC(NCc1ccco1)C(=O)Nc1cccc(O)c1 (configuration not stated) | 8%
COc1cc(C2Nc3ccccc3C(=O)N2NS(C)(=O)=O)ccc1O (configuration not stated) | -15%
CC(C)(C)CC(=O)Nc1nnc(C(F)(F)F)s1 | -15%
O=C(OCCCc1ccncc1)c1ccc(S(=O)(=O)N2CCOCC2)cc1 | 7%
COc1ccc(-c2csc(NC(C)c3nc4cc(C(=O)NCCCO)ccc4n3Cc3ccc(C)cc3)n2)cc1 (configuration not stated) | -23%
O=[N+]([O-])c1cccc(-c2ccc(/C=N/n3c(-c4ccccc4)n[nH]c3=S)o2)c1 | -8%
CCOC(=O)c1c(-c2ccccc2)csc1NC(=O)/C(C#N)=C/c1ccc(OC)c(OC)c1 | -21%
CN(C)c1ccc(C(CNS(=O)(=O)c2ccc(F)cc2)N2CCc3ccccc32)cc1 (configuration not stated) | 4%
CC(=O)c1ccc(-n2cc(C#N)c(=O)[nH]c2=O)cc1 | 3%
Cc1ccc(-c2n[nH]c(=S)nc2-c2ccc(C)cc2)cc1 | -26%
O=C(NCCc1ccccc1)c1ccc(Cl)c([N+](=O)[O-])c1 | 0%
CCN(CC)c1ccc(NC(=O)c2cncc(Br)c2)cc1 | -5%
O=C(O)c1cc(-c2ccc(Cl)cc2)n[nH]1 | 11%
O=C(CNC(=O)c1ccccc1)NCCO | 19%

(cont.)
SMILES | VDR inh
CN(C(=O)c1ccc(NC(=O)Cc2cccc(NC(=O)C3CCCN(C(=O)c4ccccc4)C3)c2)cc1)C1CC1 (configuration not stated) | 7%
CCN(c1cccc(C)c1)S(=O)(=O)c1nnc(NC(=O)c2ccco2)s1 | 2%
O=C(CN1C(=O)C(=O)N(Cc2ccccc2)C1=O)Nc1ccc(OC(F)F)cc1 | -16%
COc1ccc(-c2sc3ccccc3c2/C=C/c2ccc(N)cc2)cc1 | 0%
CC1(C)c2[nH]c3ccccc3c2C[C@@H]2C(=O)N(Cc3ccc(F)cc3)C(=O)N21 | -3%
Fc1ccc(C2=Nc3cccc4cccc(c34)N2)cc1 | -10%
CC(C)C[C@@H](CN=[N+]=[N-])N1CCN(CC(C)C)CCC1=O | ?
Cc1ccc(NC(=S)N(CCN(C)C)C(C)c2cccnc2)c(C)c1 (configuration not stated) | -11%
Cn1c(=O)c2c(nc(CN3CCCCC3)n2CCc2ccccc2)n(C)c1=O | 8%
CC(O)[C@H]1CN=C(N)N1CC1CCCCC1 (some centres not stated) | ?
CCOC(=O)C1=c2s/c(=C\c3cccnc3)c(=O)n2C(N)=C(C(=O)OC)C1c1cccnc1 (configuration not stated) | 2%
Cc1cccc(N=CC=C2OC(C)(C)C(C)(C)O2)c1 | -23%
COC(=O)c1c(NC(=O)CN2CCN(S(=O)(=O)c3ccccc3[N+](=O)[O-])CC2)sc2c1CCC(C)C2 (configuration not stated) | ?
Cc1ccc(N(C(=O)Cc2c[nH]c3ccccc23)C(C(=O)NC2CCCCC2)c2ccco2)cc1 (configuration not stated) | 5%
OCC1(Cc2ccccc2F)CCCN(Cc2c(F)ccc(F)c2F)C1 (configuration not stated) | -4%
CCOc1ccc(C2C(C(=O)O)c3ccccc3C(=O)N2CCN2CCOCC2)cc1 (configuration not stated) | 9%
COc1cc(OC)c(C2=NOC(C(=O)N3CCN(C(=O)c4ccco4)CC3)C2)cc1Cl (configuration not stated) | -16%
CC(=O)NC(Cc1ccc(F)cc1)C(=O)NC1CCN(c2nnnn2-c2ccccc2)CC1 (configuration not stated) | -2%
CC(C)N(C(=O)[C@H]1C[C@H](CC(=O)NCc2ccco2)C(=O)N2CCc3c([nH]c4ccc(Cl)cc34)[C@]12C)C(C)C | -13%
COc1ccc(-n2nnnc2SCC(=O)c2ccc3c(c2)OCCO3)c(OC)c1 | -1%
Cc1ccn2cc(-c3cnoc3C)nc2c1 | -13%
O=C(CC1NCCNC1=O)Nc1cc(Cl)cc(Cl)c1 (configuration not stated) | -9%
CCOC(=O)CCCC(=O)N1CCOCCOCCOCC1 | 3%
CCOC(=O)C1CCN(S(=O)(=O)c2ccc(Cl)nc2)CC1 | -6%
CCc1ccc(NC(=O)CS(=O)CC(=O)NCCCc2ccccc2)cc1 (configuration not stated) | 10%
O=C(NCC1CCCO1)c1cc2cc(Cl)ccc2[nH]1 (configuration not stated) | -2%
COc1ccc(-c2csc(NC(=S)NC(=O)c3ccco3)n2)cc1Br | 4%
CCn1c(COc2ccccc2C)nnc1SCC(=O)N1CCN(c2ccccc2)CC1 | -2%
CCOc1ccccc1CNC(=O)c1ccc2c(c1)nc1n2CCC(C)C1 (configuration not stated) | 23%
CCC(NC(=O)NCc1ccc2c(c1)OCO2)(C(F)(F)F)C(F)(F)F | 11%
CC(NS(C)(=O)=O)C(c1cccs1)N1CCN(C)CC1 (configuration not stated) | -12%
O=C(c1ccco1)N1CCC(c2nc3ccccc3[nH]2)CC1 | 2%
CC(C)(C)N(Cc1cc2ccccc2[nH]c1=O)C(=O)C1CCCCC1 | 4%
COc1c(F)cccc1C1=CC(=O)C[C@H](c2ccc3c(c2)OCO3)C1 | -1%
O=C(O)CCn1nnc(-c2cccs2)n1 | 1%
COc1ccccc1N(C)S(=O)(=O)c1ccc(C(=O)Nc2nccs2)cc1 | 15%
O=C(CC(c1ccccc1)c1ccccc1)Nc1ccc(O)cc1 | -11%
c1ccc(-c2cc(-c3nc(-c4ccccn4)no3)c3ccccc3n2)cc1 | -6%
O=C(C[C@H]1C/C=C\CC[C@H](Cc2ccc(F)cc2)C(=O)OC[C@@H]2CCCN2C1=O)N[C@H](CO)Cc1ccccc1 | 9%
CC(C)(CN1CCN(C(c2ccccc2)c2ccccc2)CC1)NS(=O)(=O)c1ccccc1 | 1%
Cc1ccc(S(=O)(=O)N(C)C)cc1-n1c(SCC(=O)Nc2ccc(F)cc2Cl)nc2ccccc2c1=O | 4%
COc1cccc(/C=N/N2CCN(C3c4ccccc4-c4ccccc43)CC2)c1O | -18%
CN1CCN(C(c2cccnc2)c2ccc3cccnc3c2O)CC1 (configuration not stated) | -20%
Cc1cc2c(cc1C)CSC(c1ccc(O)cc1)SC2 | -5%
O=C(COc1ccc(Cl)cc1)Nc1ccccc1C(=O)OCc1cc(=O)n2ccsc2n1 | 12%
CCOc1cc(C2CC(=O)NC(SCC)=C2C#N)ccc1O (configuration not stated) | 4%
Cc1ccc(NCCC(=O)c2cccc([N+](=O)[O-])c2)cc1 | -29%
CCOc1ccc(S(=O)(=O)N2CCOCC2)cc1NC(=O)Cc1c(F)cccc1Cl | 4%
COc1ccc(OC)c(NC=C2C(=O)OC(C)(C)OC2=O)c1 | 4%
CCN(C(=O)COC(=O)c1cccnc1Nc1ccccc1F)C1CCS(=O)(=O)C1 (configuration not stated) | -15%

(list continues)
SMILES | VDR inh
CC1C=CCC2C(=O)N(c3cccc(C(=O)N4CCN(c5ccc(F)cc5)CC4)c3)C(=O)C12 (configuration not stated) | -7%
Cc1ccc(C)c(S(=O)(=O)C(C#N)c2nc3ccccc3nc2N2CC(C)OC(C)C2)c1 (configuration not stated) | -15%
O=C1C=CC(=O)N1CCCCCCCCCCN1C(=O)C=CC1=O | 16µM*
Cc1ccc(C(C)C)c(OCCn2c(=O)oc3ccccc32)c1 | -26%
CC1CCN(S(=O)(=O)N2CCC(C(=O)NCCN3CCOCC3)CC2)CC1 | ?
CCN(CC(=O)Nc1cccc(S(=O)(=O)N2CCOCC2)c1)Cc1ccccc1 | -17%
CCOC(=O)Cn1c(=O)oc2cc(S(=O)(=O)N3CCN(c4cc(C)ccc4C)CC3)ccc21 | 5%
COc1ccc(N2CCN(C(CNC(=O)C(=O)NCCCO)c3ccco3)CC2)cc1 (configuration not stated) | -17%
Cc1ccc2nc(-c3ccc(O)cc3)c(Nc3ccc4c(c3)OCO4)n2c1 | -11%
Cc1nn(CCc2nc(-c3ccco3)cs2)c2[nH]c(=O)cc(C(F)(F)F)c12 | -82%
CC1=C(C(N)=O)C(c2ccccc2F)n2nc(-c3ccc(Cl)cc3)nc2N1 (configuration not stated) | -14%
COc1ccc(OC)c(NC(=O)C2CCN(C(=O)C3CC(=O)N(c4ccc(C)cc4)C3)CC2)c1 (configuration not stated) | -4%
CN1CCc2ccccc2C1C1CCNCC1 (configuration not stated) | 15%
COc1cc2c(cc1OC)C(c1cccs1)N(C(=O)c1ccc(S(=O)(=O)N(C)C)cc1)CC2 (configuration not stated) | 16%
S=C(c1cccs1)N1CCN(c2ccccc2)CC1 | -18%
CCOC(=O)C1CCN(C(C(=O)Nc2ccc3c(c2)OCCO3)c2ccccc2)CC1 (configuration not stated) | -2%

In the list so far, these have a furan ring, fused or not:
SMILES | VDR inh
O=C(Nc1ccc(CN2CCOCC2)cc1)c1ccc(-c2ccc(Br)cc2)o1 | -4%
COc1ccccc1C(=O)NC(=O)COC(=O)c1ccc(C)o1 | 1%
O=C(NCc1ccco1)c1c(F)cccc1Cl | 3%
O=C(CSc1nc2ccccc2[nH]1)N/N=C/c1ccco1 | -7%
O=C(O)CC(NCc1ccco1)C(=O)Nc1cccc(O)c1 (configuration not stated) | 8%
O=[N+]([O-])c1cccc(-c2ccc(/C=N/n3c(-c4ccccc4)n[nH]c3=S)o2)c1 | -8%
CCN(c1cccc(C)c1)S(=O)(=O)c1nnc(NC(=O)c2ccco2)s1 | 2%
Cc1ccc(N(C(=O)Cc2c[nH]c3ccccc23)C(C(=O)NC2CCCCC2)c2ccco2)cc1 (configuration not stated) | 5%
COc1cc(OC)c(C2=NOC(C(=O)N3CCN(C(=O)c4ccco4)CC3)C2)cc1Cl (configuration not stated) | -16%
CC(C)N(C(=O)[C@H]1C[C@H](CC(=O)NCc2ccco2)C(=O)N2CCc3c([nH]c4ccc(Cl)cc34)[C@]12C)C(C)C | -13%
COc1ccc(-c2csc(NC(=S)NC(=O)c3ccco3)n2)cc1Br | 4%
O=C(c1ccco1)N1CCC(c2nc3ccccc3[nH]2)CC1 | 2%
COc1ccc(N2CCN(C(CNC(=O)C(=O)NCCCO)c3ccco3)CC2)cc1 (configuration not stated) | -17%
Cc1nn(CCc2nc(-c3ccco3)cs2)c2[nH]c(=O)cc(C(F)(F)F)c12 | -82%

Assay outcomes (PubChem)
